NPYLR7 ag – agonists of mosquito NPYLR7 receptor, primary screen, cell-based, Aedes aegypti, calcium fluorescence, mosquito biting behavior; actives 0.15% (n = 270,000); activation, % at 10 µM; Aedes aegypti neuropeptide Y-like receptor 7 (NPYLR7); HEK293T NPYLR7/Galpha15, GCaMP6s calcium fluorescence; AID 1259423, 2018; in the data active = activation above about 40%;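 also: 0% = vehicle and 100% = reference agonist at the receptor; some compounds past the cut are filed as inactive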
NPYLR7 ag max-min – recorded beside NPYLR7 ag, whose call it bears; activation, %; measured here: Max-Min RFU normalised activation; some inactives read as strong as hits;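 span of the calcium signal over five minutes; 0% = vehicle and 100% = native peptide agonist; compound fluorescence can raise it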
The depositor's hits bear a star; & = joins results of further samples. Only part of the results is shown, so the mix of outcomes need not match the whole.

SMILES	NPYLR7 ag	NPYLR7 ag max-min
CCc1c(C)nn(-c2ccc(C(=O)NCc3ccc(OC)cc3OC)cc2)c1C	-19	-28
COc1cc(C2C(C#N)C(=N)SC(=N)C2C#N)ccc1O (stereo unspecified)	5	2
Cc1ccc(N=C2SC(C(=O)Nc3ccc(C)c(Cl)c3)CC(=O)N2C)cc1C (stereo unspecified)	1	-3
C=CCNC(=O)c1c(NC(=O)c2ccccc2[N+](=O)[O-])sc2c1CCCC2	0	-2
CC(C)Oc1ccc(C(=O)Nn2cnc3c(cnn3-c3ccccc3)c2=O)cc1	2	0
C[C@H](NC(=O)C1CC=CCC1C(=O)N1CCN(c2ccccn2)CC1)[C@H](O)c1ccccc1 (stereo partly specified)	-9	-17
C=CCOc1ccccc1/C=C1\C(=O)N(c2cccc(Cl)c2)N=C1C	5	11
C[n+]1ccccc1COc1ccc(C(N)=O)cc1	-1	-4
CC(C)(C)c1nc(CN2CCCCC2c2ccccn2)no1 (stereo unspecified)	3	1
CN1CC(C(=O)N2CCCN(c3ccc(C#N)cc3)CC2)CC1=O (stereo unspecified)	5	1
CCOCCCNC(=O)CCc1nc2sc3c(c2c(=O)[nH]1)CCCC3	-1	10
CC(=O)N1CC(c2cnc(-c3ccccc3)c(C)c2)C=C(C)C1c1ccccc1 (stereo unspecified)	-5	-14
CCc1c(C)nc(-n2nc(C)cc2NC(=O)c2ccc(OC)c(OC)c2)[nH]c1=O	10	6
CCOC(=O)c1c(-c2cccs2)csc1NC(=O)CN1CCC(C)CC1	-9	-13
O=C(CCC1CCCN(Cc2ccc3nonc3c2)C1)Nc1ccccc1F (stereo unspecified)	5	-1
CCOC(=O)c1nn(-c2cccc(OC)c2)c(=O)c2c(NC(=O)CC3CCCC3)scc12	1	-1
O=C(Nc1nc(SCc2ccccn2)[nH]c(=O)c1NC(=O)c1cccs1)c1ccco1	-4	-4
c1cncc(CCn2ccnc2-c2cnc(N3CCOCC3)s2)c1	13	3
Cc1sc(CCCCC(=O)O)c(N)c1[N+](=O)[O-]	12	6
COCCNC(=O)C(NC(=O)c1ccccc1F)C1CCN(C(=O)Cc2ccccc2)CC1 (stereo unspecified)	8	9
O=c1c2ccccc2cnn1CCNC1CCSC1 (stereo unspecified)	5	4
COC(=O)CN(Cc1ccc(Cl)cc1)C(=O)c1cc(C#N)cs1	0	-4
CC(=O)Nc1ccc(S(=O)(=O)Oc2ccc(CN(Cc3ccco3)C(=O)NC(C)(C)C)cc2)cc1	0	4
Cc1cccc(Nc2nc(-c3cnc(N4CCCCC4)nc3C)cc(=O)[nH]2)c1	0	-1
CCCc1nnc2c(=O)n(-c3ccc(F)cc3)ccn12	9	-3

Next structures
SMILES	NPYLR7 ag	NPYLR7 ag max-min
COc1ccc(N(CCN2C(=O)CNC2=O)Cc2ccccc2)cc1	8	6
CC(C)CC(=O)NCc1nnnn1C1CCCCC1	1	0
CCOC(=O)CC(=O)N1CC(=O)N2CCc3c(F)cccc3C2C1 (stereo unspecified)	35	32
Cc1onc(-c2ccccc2)c1C(=O)N1CCc2ccccc2C1c1ccc(Cl)cc1 (stereo unspecified)	8	3
N#Cc1ccc(OC(F)F)c(NC(=O)Cn2ncc3ccccc32)c1	0	4
CC(=O)Nc1ccc(-c2nccn2CCSc2ncn[nH]2)cc1	0	-5
CN(CC(=O)Nc1ccccc1Cl)C(=O)CN1CCN(c2cccc(Cl)c2)CC1	3	7
CCOC(=O)N1CCC(n2ccnc2-c2ccc(CC)o2)CC1	12	11
O=C(CCc1ccccc1)N1CCN(c2ccc(O)cc2)CC1	-6	-11
CCc1cccc(NC(=O)CCN2CCN(CC3CCN(C)CC3)CC2)c1	0	-1
COc1cccc(-c2csc(=Nc3ccc(Cl)cc3)n2N2CCOCC2)c1	-4	-8
CCOC(=O)C1=C(COC(=O)c2cc3c(C)nn(CC(C)C)c3s2)NC(=O)NC1CC (stereo unspecified)	0	7
O=C(NCCc1ccccc1)C1CCC(=O)N(CCN2CCOCC2)C1 (stereo unspecified)	-5	-5
Nc1nc(SCC(=O)N2CCCCC2)[nH]c(=O)c1NC(=O)c1ccccc1F	-5	-7
COc1cccc(C(=O)N2CCN(c3cc(Oc4cccc(C)c4)ncn3)CC2C)c1 (stereo unspecified)	8	6
O=C(CCc1ccncc1)N1CCCC(Nc2ccc(F)cc2)C1 (stereo unspecified)	-3	-7
CCN(CC)CCOc1ccc(/C(=C(\Cl)c2ccccc2)c2ccccc2)cc1	-4&-9	-7&-12
O=C(c1cccc(Cl)c1)N1CCC2(CC1)SCCN2C(=O)c1ccc(C(F)(F)F)cc1	-9	-10
Cc1cc(C(=O)N2CCN(C)C(=O)C2(C)C)c(C)o1	1	0
Cc1ccc2oc(=O)n(CCC(=O)N3[C@@H]4CC[C@H]3CNC(=O)C4)c2c1	3	1
Cc1cc(C)cc(-n2nc3c(c2NC(=O)c2cccs2)CSC3)c1	-1	2
O=C(Nn1cnc2sccc2c1=O)c1csc2c1CCCC2	13	11
Cc1noc(C)c1CN1CCN2C=C(C(=O)Nc3cccc(Cc4ccccc4)c3)OC2=NC1=O	0	-2
Cc1cc(N=C2C=C(N3CCOCC3)CC(C)(C)C2)n[nH]1	3	-2
Cc1ccc(NC(=O)CNC[C@H]2CCc3ccccc3O2)c(C)c1	1	0

Carrying on.
SMILES	NPYLR7 ag	NPYLR7 ag max-min
Cc1ccc(Cl)cc1-n1c(SCc2nc(C(=O)N3CCN(Cc4ccc5c(c4)OCO5)CC3)cs2)nnc1-c1ccco1	14	10
Brc1ccc(-n2cccc2/C=N\n2cnnc2)cc1	-4	-13
CC(c1ccco1)N(C)c1ncnc2c1c(Br)nn2C (stereo unspecified)	14	11
O=C(NCc1cccc(OC(F)F)c1)c1sc2cc3c(cc2c1Cl)OCO3	-3	-11
COc1ccc(C(=O)N2CC[C@@H](c3ccc4ccccc4c3)[C@H](O)C2)o1	0	2
Cc1nccn1-c1cc(NCCNC(=O)C(C)C)ncn1	-16	-19
CC(C)Cn1c(=O)c2c(nc3n2CC(C)CN3c2ccc(F)cc2)n(C)c1=O (stereo unspecified)	9	11
Cc1ccc(/C=C/C(=O)Nc2cccnc2N2CCOCC2)s1	-3	-4
O=C(NC1CCCC1)c1csc2c1CCCC2	2	3
N#CCc1nn(-c2ccccc2)c(N)c1C#N	7	6
CCCCCCn1c(-c2ccc(OC)cc2)csc1=Nc1cc(OC)cc(OC)c1	0	-2
COc1ccc(OC)c(-c2cn3ccn(-c4cccc(Cl)c4C)c(=O)c3n2)c1	1	1
O=C1CC(c2coc3ccccc3c2=O)Sc2ccccc2N1 (stereo unspecified)	-4	-6
O=C1NC(=S)NC(=O)C1=Cc1ccc(-c2cc([N+](=O)[O-])ccc2O)o1	-16	-20
COC(=O)c1sccc1NC(=O)c1ccc(-n2nc(C)cc2C)cc1	18	13
COc1ccc(NC(C)c2nc(-c3ccco3)no2)cc1 (stereo unspecified)	10	9
Nc1ccc2oc(=O)[nH]c2c1	2	3
Oc1ccc(C=NNC(=S)NCC2CCCO2)c(O)c1 (stereo unspecified)	2	-2
COCCC1(C(=O)O)CCN(c2nc(-c3ccccc3)nc3ccccc23)CC1	23	17
O=[N+]([O-])c1cccc(S(=O)(=O)Nc2cccc3ccccc23)c1	2	5
Cc1ccccc1C(C)NC(=O)CCc1cn(C)nc1C (stereo unspecified)	12	5
Cc1nc(C)c(-c2ccc(SCc3ccc([N+](=O)[O-])cc3)nn2)s1	-11	-15
CC(C(=O)Nc1c(Cl)cccc1Cl)N1CCN(S(=O)(=O)c2cc(F)ccc2F)CC1 (stereo unspecified)	-2	-5
CN(Cc1ccc2ccccc2n1)C(=O)c1ccc(CSc2ncn[nH]2)o1	1	-2
Cc1nccn1-c1cc(NCCNC(=O)c2ccco2)ncn1	-19	-24

(more compounds)
SMILES	NPYLR7 ag	NPYLR7 ag max-min
CN(CC(=O)Nc1ccccc1Cl)C(=O)CCn1cnc2ccccc2c1=O	-8	-10
Cc1nc(-c2ccc(S(=O)(=O)N3CCCCC3)cc2)cs1	13	13
O=C(NCCCn1nc(-c2ccccc2)ccc1=O)c1ccccc1C(F)(F)F	2	2
Cc1ccc(CSc2ccc3nnc(CCNS(=O)(=O)c4ccccc4)n3n2)cc1	-2	-10
CCC1=NOC(CN2CCOc3c(O)cc(-c4nc(C)cnc4C)cc3C2)C1 (stereo unspecified)	-2	-6
CC(C(=O)N1CCC(CS(N)(=O)=O)CC1)c1cccc(Cl)c1 (stereo unspecified)	-1&-24	-11&-24
Cc1c(Br)c([N+](=O)[O-])nn1CC(=O)Nc1c(F)cc(F)cc1Br	-1	-3
CCOC(=O)c1cnn(-c2ncnc3sc4c(c23)CCC4)c1N	18	10
CC(C)NC(=O)CN(C)C(=O)C1(C)CC1(Cl)Cl (stereo unspecified)	15	10
O=C1NC2(CCN(Cc3ccccc3C(F)(F)F)CC2)Nc2cccc(F)c21	-2	0
O=C(CCCOc1ccccc1)N(Cc1ccco1)Cc1c(F)cccc1Cl	0	-3
CN(C)CCCN(C(=O)c1ccc2c(c1)OCCO2)c1nc2c(F)cc(F)cc2s1	3	0
Cc1ccc(S(N)(=O)=O)cc1C(=O)N1CCCN(CC(C)C)CC1	6	5
CC(C)SC(NC(=O)OCc1ccccc1)C(=O)NCCNc1ccc([N+](=O)[O-])cn1 (stereo unspecified)	-8	-12
O=C1NC(=O)C(=Cc2cccc(Cl)c2Cl)S1	9	7
CCOC(=O)C1CCCN(CC(=O)N2N=C(c3cccc(OC)c3)CC2c2ccc(OC)cc2OC)C1 (stereo unspecified)	-1	6
CN(CC(=O)Nc1cnccn1)Cc1cc(-c2ccccc2)on1	5	-3
COc1cc(OC)c(CNC(=O)c2c(C)noc2-c2ccccc2Cl)c(OC)c1	-6	-4
CCCCN(CC(=O)N(Cc1cccn1Cc1ccccc1Cl)CC(C)C)S(=O)(=O)c1c(C)cc(C)cc1C	0	9
CC(Nc1ccc(S(N)(=O)=O)cc1C(N)=O)c1ccc2c(c1)CCCC2 (stereo unspecified)	6	1
COc1ccc(CC2=NOC(C(=O)N3CCC(OCc4ccccc4)CC3)C2)cc1 (stereo unspecified)	5	3
COC(=O)c1cc(OC)c(OC)cc1NS(=O)(=O)c1ccccc1	2	-4
COc1ccccc1C1c2cccn2CCCN1Cc1cc(F)ccc1F (stereo unspecified)	0	1
COC(=O)C1(NC(=O)C(C)OCc2ccccc2)CCCCC1 (stereo unspecified)	-4	-5
Cc1c(C(=O)N2CCN(C(=O)Nc3cccc(Br)c3)CC2)cc(-c2ccccc2)n1-c1ccccc1Cl	26	21

(more compounds)
SMILES	NPYLR7 ag	NPYLR7 ag max-min
CCN1CCN(c2nc(Nc3cc(C)ccc3C)c3nccnc3n2)CC1	2	1
CCOC(=O)C1CCCN(C(=O)c2cc3n(n2)CCN(Cc2c(Cl)cccc2Cl)C3=O)C1 (stereo unspecified)	15	22
CCc1ccc(N2CC(C(=O)N3CCOc4cc(N(C)C)ccc43)CC2=O)cc1 (stereo unspecified)	5	4
COC[C@@H]1CCCN1C(=O)C1CC(=O)N(Cc2ccc(Cl)cc2)C1 (stereo partly specified)	7	7
CN(Cc1ccccc1N1CCCC1)S(=O)(=O)c1ccc2[nH]c(=O)[nH]c2c1	8	5
O=C(NS(=O)(=O)c1cccs1)c1cc(F)c(F)c(F)c1	12	8
O=C(Nc1cccc(F)c1)N1CCSC1c1cccc(Oc2ccccc2)c1 (stereo unspecified)	14	16
CCS(=O)(=O)c1ncc(CN(C)CC2CCCCO2)n1Cc1ccccc1 (stereo unspecified)	0	-4
CCCCCc1ccc(C(=O)CSc2nnc(NC(=O)Cc3cccs3)s2)cc1	13	19
Cc1ccc(C)c(CS(=O)(=O)Cc2nc(C(C)C)no2)c1	7	1
N#CC1=C(SCC(=O)Nc2ccc(Br)cc2)NC(=O)CC1c1ccccc1Cl (stereo unspecified)	-3	-7
O=C(NCc1nncn1-c1ccccc1)C1CCCCC1	1	1
O=[N+]([O-])c1cccc(-c2nc(-c3ccncc3)no2)c1	-4	-7
COc1ccc(Cl)cc1NC(=O)c1ccc(OCc2cscn2)cc1	16	16
CCc1cccc2c(C(CC(=O)NCCc3ccc(OC)c(OC)c3)c3cccc(F)c3)c[nH]c12 (stereo unspecified)	33	34
CC1CCNC1c1ccc(C(F)(F)F)cc1 (stereo unspecified)	-2	-8
Cn1nnc2c(SCc3ccccc3)ncnc21	2	7

Bioassay records (PubChem BioAssay)
